From PubChem BioAssay
Mtb hypoxia inh: PubChem AID 1159583; M. tuberculosis hypoxia-regulated fluorescent reporter, fluorescence; fluorescence inhibition, % (test concentration not listed); hit rate 0.1% among 300,000;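 active = 35 to 45% if threefold the growth effect, above 45% if 1.5-fold the growth effect; inactive = the rest, general growth blockers included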;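 note: wells of about 50 µL received 100 nL stock; 0% = vehicle wells and 100% = reference inhibitor wells; whole bacteria with a GFP reporter of the hypoxia response; strong numbers were not always called active; many hits fall short of the cut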
BJeLR viability: MLPCN primary cell-based screen for lethality selective to Ras in HRASV12 cells | BJeLR (HRASV12) viability, CellTiter-Glo ATP luminescence, 48 h; reference of the scale not given here | inhibition, % (concentration not given with the values) | hit rate 0.17% among 300,000 | AID 1554, 2009;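 active = replicate mean above 50%; inconclusive = above 50% but judged a plate artefact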;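 note: 50 nL library stock added to about 25 µL; numbers are from one replicate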
RN4220 kill: growth inhibition of S. aureus RN4220, primary screen, OD600; AID 1259311, 2017; 16 h; hit rate 0.33% among 330,000; inhibition, % (concentration not given with the values);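 active = z-score of -3 or lower and OD600 up to 0.18 on both plates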;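 note: plate controls were untreated cells for no effect and reference antibiotic for full effect; stock transfer was 100 nL into about 80 µL; one replicate is shown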
Sa ugtP lethal: growth inhibition of ugtP-null S. aureus, primary screen, RN4220 ugtP deletion, OD600; 16 h; some inactives read as strong as hits; growth inhibition, % (test concentration not listed); hit rate 0.54% among 330,000; AID 1259309, 2017;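 active = z-score under -3 and OD600 up to 0.15 on both plates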;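 note: plate controls were untreated wells for no effect and antibiotic for full effect; wells of about 80 µL received 100 nL stock; the first replicate is given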
Autofluor counter: flagged as autofluorescent in microsphere protease counterscreen. compound autofluorescence counterscreen, microsphere flow cytometry; active compounds read high. AID 624483. fluorescence intensity (concentration not given with the values). hit rate 3.1% among 360,000;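 active = at least 3 SD above the mean of all compounds, about 16000 in these data; inconclusive = too few beads counted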;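 note: 100 nL of 1 mM stock went into each well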
PrP 5UTR inh: inhibition of PrP 5' UTR reporter expression. cell-based PrP 5' UTR mRNA reporter, plate reader. inhibition, % (test concentration not listed). hit rate 0.35% among 340,000. AID 488862, 2010;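 active = every replicate at 50% or more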;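 note: 0 = median of the neutral control wells; tested in H4 reporter cells; numbers are from one replicate; inactives centre near -14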
Mtb hypoxia inh growth: second read-out of Mtb hypoxia inh, no call of its own (marks repeat the call); growth inhibition, %; measured here: M. tuberculosis growth (absorbance);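 0% = vehicle and 100% = reference antibiotic; read after six days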
* = called active by the depositor; u = inconclusive; x = not tested or not shown. Compounds as they come (roughly 4% active in at least one column).

SMILES | Mtb hypoxia inh | Mtb hypoxia inh growth | BJeLR viability | RN4220 kill | Sa ugtP lethal | Autofluor counter | PrP 5UTR inh
O=C(N/N=C\c1cn[nH]c1-c1ccccc1)c1cccnc1 | x | x | -15 | x | x | 13392 | -23
NC(=O)c1nn(-c2ccccc2)nc1NC(=O)CN1CCCC1 | 18 | 13 | 9 | 4.1 | 2 | 3552 | -10
O=C(/C=C/c1ccco1)N(Cc1ccc(Cl)cc1)C1CCS(=O)(=O)C1 (stereo not drawn) | 3 | 2 | 6 | 0.9 | -3 | 3953 | -19
CC1=C(C(=O)O)N2C(=O)C(NC(=O)c3nn(C)cc3Cl)C2SC1 (stereo not drawn) | x | x | -1 | 3.6 | 7 | 4194 | -28
CCc1cc(=O)oc2c(CN3CCCC3)c(O)c(Cl)cc12 | 7 | 9 | -2 | 3.7 | 9 | 4108 | -17
CCOC(=O)CSc1nnc(CNc2ccc(Cl)cc2)n1Cc1ccccc1 | 17 | 3 | 2 | -6.3 | -11 | 3173 | -13
O=C(N/C(=C\c1ccc(Br)cc1)C(=O)N1CCCC1)c1cccs1 | -10 | 1 | -4 | 0.9 | -3 | 4411 | -3
CCN(CC)CCCN(Cc1cc2cc3c(cc2[nH]c1=O)OCCO3)C(=O)Nc1ccccc1 | 18 | 3 | -2 | 15 | 18 | 2767 | -8
O=C(CCSc1ccccc1)N1CCCC1 | 9 | 2 | -6 | 3.2 | 3 | 1997 | -47
O=C(c1ccc2c(c1)OCO2)C1CCCN(Cc2cc(F)ccc2-n2cccn2)C1 (stereo not drawn) | -5 | 12 | 10 | 5.4 | 2 | 4557 | -19
COc1cccc(CNC(=O)CCC2CCCN(C(=O)c3cccc(Cl)c3)C2)c1 (stereo not drawn) | 5 | 0 | 6 | 9.0 | 3 | 4427 | -16
COc1ccccc1C(=O)NCC(=O)NC(C)c1ccc(-n2ccnc2)cc1 (stereo not drawn) | 9 | -5 | -11 | -4.9 | 0 | 6288 | -22
CCCn1c(-c2ccc(C(=O)OC)cc2)nc2c1c(=O)[nH]c(=O)n2Cc1ccccc1 | -3 | -6 | 1 | 3.0 | 17 | 2979 | -20
C=CC1C(OC2OC(CO)C(O)C(O)C2O)OC=C2C(=O)OCC[C@]21O (stereo partly drawn) | 1 | 3 | x | -1.0 | -3 | x | x
CCOC(=O)c1cc(S(=O)(=O)N2CCC(C)CC2)cn1C | -2 | -5 | 2 | 2.6 | 5 | 5520 | 2
O=C(Nc1ccncc1)c1cn(-c2ccccc2)nc1-c1cccs1 | -83 | -26 | 7 | -3.9 | -16 | u | -9
COC(CN(C)C(C(=O)NC1CCCCC1)c1ccccc1)OC (stereo not drawn) | 0 | 1 | 22 | 4.4 | 3 | 3860 | -27
COc1cc(NC(=O)c2cc(OC)c(OC)c(OC)c2)cc(-n2cnnn2)c1 | 16 | 10 | 2 | 1.4 | -5 | 5380 | -18
Cc1nn(Cc2noc(C(=O)NCc3ccc4c(c3)OCO4)n2)c(C)c1Br | 6 | 11 | 1 | 0.6 | 2 | 5767 | -42
O=C(CCc1c[nH]c2ccccc12)N1CCCC1 | 4 | 4 | -1 | 3.8 | 6 | 3539 | -37
Cc1ccc(CCNC(=O)Cn2ncc3c([nH]c4ccccc43)c2=O)cc1 | 5 | 1 | 6 | 3.2 | 4 | 5790 | -2
Cc1cc(C)nc(-n2nc(C)c(C3(O)C(=O)Nc4ccc(F)cc43)c2N)n1 (stereo not drawn) | x | x | 12 | 4.8 | -1 | 3597 | -15
Cc1cccc(NS(=O)(=O)c2ccc(NC(=O)N3CCCCC3)cc2)c1 | 8 | 5 | 7 | 0.5 | -2 | 6307 | -22
CC(NC(=O)C1CCN(c2nnc(-n3cccc3)s2)CC1)C12CC3CC(CC(C3)C1)C2 (stereo not drawn) | 11 | 5 | -2 | 7.7 | -5 | 3002 | -19
O=c1c2ccccc2[nH]c(=S)n1Cc1ccc2c(c1)OCO2 | 11 | 7 | 3 | -17 | 1 | 4052 | -6
(listing goes on)
SMILES | Mtb hypoxia inh | Mtb hypoxia inh growth | BJeLR viability | RN4220 kill | Sa ugtP lethal | Autofluor counter | PrP 5UTR inh
CCCC1CC(=O)NC1(C(=O)OCC)C(=O)OCC (stereo not drawn) | 7 | 7 | x | 8.0 | 6 | 3528 | -25
CC(=O)N1CCn2c3ccc(C)cc3c3cccc1c32 | 12 | 8 | 3 | 2.8 | -15 | 3887 | -29
O=C(Nc1ccccc1Oc1ccccc1)C1CC1 | x | x | 3 | -9.0 | -2 | 3404 | -9
CCOC(=O)C(C)/C(C)=N\Nc1ccc([N+](=O)[O-])cc1[N+](=O)[O-] (stereo not drawn) | x | x | -6 | x | x | 4495 | 0
Cc1nc(CC(=O)Nc2nc(C(C)(C)C)cs2)cs1 | 4 | 4 | -2 | 8.8 | 2 | 3385 | -7
C[C@@H]1CCC[C@]2(O[C@H](CCO)C[C@@H](O)[C@@H]2O)O1 | x | x | 0 | x | x | 3689 | -9
CC(=NNC(=S)NCCc1ccccc1)c1ccc(O)cc1O | x | x | x | -2.0 | 3 | x | x
CC(=O)NCC1CCCN(Cc2cn(-c3ccccc3F)nc2-c2cc(C)sc2C)C1 (stereo not drawn) | 12 | -1 | -6 | 8.3 | 4 | 4435 | -15
Nc1ccccc1SCc1ccccc1Cl | -7 | 7 | 4 | 7.2 | -3 | 6642 | -8
COc1ccc(Cl)cc1NC(=O)Nc1cnccn1 | 2 | 8 | 5 | 1.9 | 0 | 5958 | -9
CCCC(=O)Nc1ccc(-c2nc3cc(C)ccc3o2)cc1 | x | x | 8 | 0.2 | 3 | 4846 | -121
C1=CCN(Cc2ccccc2)C1 | 1 | 2 | 1 | 7.3 | -3 | 5270 | -8
COc1ccccc1C(=O)ON=C(c1ccncc1)c1ccc([N+](=O)[O-])cc1 | -2 | 0 | x | 2.8 | 3 | x | x
COc1ccc(CCNC(=O)c2ccccc2NC(=O)C2=C(C)OCCS2)cc1OC | -4 | 10 | 6 | 0.5 | -2 | 5726 | -20
CCO/C=C1/C(=O)N(c2ccccc2OC)C(=O)c2ccccc21 | -3 | 11 | 8 | 5.8 | 3 | 3792 | -17
COCCNC(=O)c1onc(CSc2cccc(C)c2)c1C(=O)O | -5 | 0 | 2 | 5.5 | 0 | 3737 | -16
Cc1ccc(C)c(OCCCN2CCNCC2)c1 | -1 | -2 | 13 | 1.6 | 9 | 4092 | -33
COc1ccc(CNC(=O)C(C)n2nc(C)n3c(cc4occc43)c2=O)cc1 (stereo not drawn) | 2 | -1 | 10 | 5.7 | 8 | 5303 | -11
O=C(/C=C/c1ccc(Br)cc1)NC1CCCCCC1 | 4 | 7 | 1 | 7.8 | -9 | 21525* | -49
Clc1nc(NCc2ccco2)nc(N2CCCCC2)n1 | 14 | 10 | 11 | 4.3 | 6 | 3843 | -5
O=C(NCCc1ccc(Cl)cc1)/C(=C/c1cccnc1)NC(=O)c1ccccc1 | 10 | 3 | 0 | 3.4 | 8 | 2200 | -19
C/C(=N\NC(=O)CSCc1ccc([N+](=O)[O-])cc1)c1ccccc1 | x | x | -9 | x | x | 3414 | -8
CCC(C(=O)N1CCC(C(N)=O)CC1)n1nc(C)n2c(cc3occc32)c1=O (stereo not drawn) | 8 | 8 | 5 | 4.9 | -2 | 5262 | -22
Cc1[nH]n(-c2cccc(Cl)c2)c(=O)c1C=NCC(C)C | 1 | 11 | 3 | 6.3 | 4 | 4800 | -51
COc1ccc(CN2CCNC(=O)C2CC(=O)N(C)Cc2nccs2)c(OC)c1 (stereo not drawn) | 5 | -4 | 0 | 2.8 | 6 | 4428 | -14
Next section
SMILES | Mtb hypoxia inh | Mtb hypoxia inh growth | BJeLR viability | RN4220 kill | Sa ugtP lethal | Autofluor counter | PrP 5UTR inh
CC(=O)c1c(C)nn(CC(O)COc2ccc3ccccc3c2)c1C (stereo not drawn) | -10 | 3 | 0 | 1.7 | 5 | 3930 | -14
COc1ccc(NC(=O)CC2CCCC2)cc1S(=O)(=O)N1CCCCC1 | 15 | 2 | -16 | 2.4 | 4 | 2358 | 12
O=C(CSc1nnc(-c2cnccn2)n1Cc1ccco1)Nc1ccc(Br)cc1 | 23 | 8 | 1 | -12 | -21 | 3385 | -17
COCCn1c(=O)[nH]c2cc(C(=O)Nc3cc(OC)c(OC)c(OC)c3)ccc2c1=O | -1 | 0 | 5 | -0.5 | -1 | 3778 | -7
Cc1cccc(N2CCN(C(=O)C3CCN(S(=O)(=O)c4cccc5cccnc45)CC3)CC2C)c1 (stereo not drawn) | x | x | 3 | -0.8 | -1 | 8250 | -11
CCCCn1c(/N=C/c2ccc(N(C)C)cc2)nc2ccccc21 | x | x | -1 | x | x | 4028 | -10
CN(C(=O)c1ccccc1Cl)c1ccccc1C(=O)NCc1ccccc1 | 6 | 3 | -2 | 0.2 | 3 | u | -48
Cc1ccccc1NCc1ccccc1O | x | x | -2 | 1.1 | -5 | 2895 | -16
CCNC(=S)NN=Cc1sc(N2CCCCC2)nc1-c1cccs1 | -3 | -4 | x | -1.7 | 32 | x | x
CCOC(=O)CC(/C(C)=N\O)c1ccccc1 (stereo not drawn) | x | x | 4 | x | x | 21192* | -10
Cc1ccc(/C=N/n2c(C)nnc2C)cc1 | x | x | 1 | x | x | 2570 | -19
CC1CC(C)CN(S(=O)(=O)c2ccc3c(c2)C(C)(C)C(=O)N3C)C1 (stereo not drawn) | 4 | -5 | 1 | 3.4 | -2 | 6406 | -11
Cc1ccc2cc(CN(CC3CCCO3)C(=S)Nc3ccccc3)c(=O)[nH]c2c1C (stereo not drawn) | 17 | 7 | 10 | 7.8 | 8 | 2406 | -25
Cc1ccc(C)c(Nc2ccc(C(=O)NCCc3ccccc3)cn2)c1 | 10 | 6 | 9 | -9.0 | -14 | 2349 | 4
O=c1[nH]c2ccc(S(=O)(=O)Nc3ccc(Br)cc3)cc2[nH]1 | -7 | 5 | -2 | -2.7 | 6 | 5248 | -9
O=c1c(/C=N/OCc2ccc(Cl)cc2Cl)c[nH]n1-c1cccc(Cl)n1 | x | x | 0 | x | x | 2717 | -20
Cc1cc(C(=O)NCCCN2CCCC2=O)no1 | 2 | 9 | 3 | 2.5 | 1 | 26454* | -8
CCOc1cc(C2CC(=O)c3c(ccc4ccccc34)N2)ccc1O (stereo not drawn) | x | x | 3 | 8.8 | 11 | 6610 | -5
Cc1ccc(C)c(N2CCN(C(=O)C(Cc3ccccc3)n3cccc3)CC2)c1 (stereo not drawn) | -1 | 14 | -3 | 0.1 | 2 | 5383 | -1
O=S(=O)(c1ccccc1)[C@@]1(c2ccc(Br)cc2)CC2ON=C(c3ccccc3)C2C1 (stereo partly drawn) | 6 | 9 | x | -4.2 | -16 | x | x
COC1CCCCC1Nc1ccc(C)c(C)c1 (stereo not drawn) | -3 | 8 | 1 | 2.9 | 3 | 6150 | -13
CN(C)CCN(C(=O)c1ccc2ccccc2c1)c1nc2ccc(F)cc2s1 | 13 | 3 | -5 | 3.2 | -5 | 5363 | -18
Cc1cccc(C(P(=O)(c2ccccc2)c2ccccc2)P(=O)(c2ccccc2)c2ccccc2)n1 | 8 | 9 | -11 | 9.3 | -6 | 2377 | -18
O=C(Nc1ccc(Oc2ccccc2)cc1)c1ccco1 | x | x | 1 | 3.4 | 7 | 2474 | -102
O=C(Nc1cccc(NC(=O)c2ccc(Br)o2)n1)c1ccc(Br)o1 | 3 | 6 | -1 | 4.6 | -13 | 10936 | -35

Gathered by group, those above containing an aryl thioether with sulfur outside any ring
SMILES | Mtb hypoxia inh | Mtb hypoxia inh growth | BJeLR viability | RN4220 kill | Sa ugtP lethal | Autofluor counter | PrP 5UTR inh
CCOC(=O)CSc1nnc(CNc2ccc(Cl)cc2)n1Cc1ccccc1 | 17 | 3 | 2 | -6.3 | -11 | 3173 | -13
O=C(CCSc1ccccc1)N1CCCC1 | 9 | 2 | -6 | 3.2 | 3 | 1997 | -47
Nc1ccccc1SCc1ccccc1Cl | -7 | 7 | 4 | 7.2 | -3 | 6642 | -8
COCCNC(=O)c1onc(CSc2cccc(C)c2)c1C(=O)O | -5 | 0 | 2 | 5.5 | 0 | 3737 | -16
O=C(CSc1nnc(-c2cnccn2)n1Cc1ccco1)Nc1ccc(Br)cc1 | 23 | 8 | 1 | -12 | -21 | 3385 | -17
